NPYLR7 ag – agonists of mosquito NPYLR7 receptor, primary screen, cell-based, Aedes aegypti, calcium fluorescence, mosquito biting behavior. HEK293T NPYLR7/Galpha15, GCaMP6s calcium fluorescence. actives 0.15% (n = 270,000). activation, % at 10 µM. Aedes aegypti neuropeptide Y-like receptor 7 (NPYLR7); in the data active means activation above about 40%;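 further: 0% = vehicle and 100% = reference agonist at the receptor; some compounds past the cut are filed as inactive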
NPYLR7 ag max-min – recorded beside NPYLR7 ag, whose call it bears; activation, %; measured here: Max-Min RFU normalised activation; some inactives read as strong as hits;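 span of the calcium signal over five minutes; 0% = vehicle and 100% = native peptide agonist; compound fluorescence can raise it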
* = called active by the depositor; & = joins results of further samples. The list is partial. The share of hits here may be higher or lower than overall.

Molecule,NPYLR7 ag,NPYLR7 ag max-min
COc1cccc(Oc2c(CN(CC(O)COCC(C)C)CC3CCCO3)c(-c3ccccc3)nn2C)c1 (stereo not given),8.2,8.1
O=C1CCc2cc(NS(=O)(=O)c3ccc([N+](=O)[O-])cc3)cc3c2N1CC3,6.5,1.8
N#CCCN(CCC#N)c1nc2ccc([N+](=O)[O-])cc2s1,-7.5,-9.8
O=C(Nc1ccc(N2CCc3ccccc3C2)c(C(=O)NCC2CCCO2)c1)c1ccc(Br)cc1 (stereo not given),16.2,16.8
Cn1ccnc1Sc1ccc(NC(=O)C2CC(c3ccc(Cl)s3)=NO2)cc1 (stereo not given),2.1,13.5
COC(=O)c1ccc(Cn2cnc3c(nnn3-c3cc(C)cc(C)c3)c2=O)o1,-6.0,-6.3
Cc1cccc2sc(N(CCN3CCOCC3)C(=O)c3nc4ccccc4s3)nc12,12.0,4.2
CCCCN(C(=O)c1csc(-c2ccc(Cl)s2)n1)C1CCS(=O)(=O)C1 (stereo not given),-2.1,4.1
CCCNC(=O)C1(C)CCCN(Cc2ccc(OC(C)=O)cc2)C1 (stereo not given),10.2,4.3
CCCC(=O)C1=C(c2cccc([N+](=O)[O-])c2)N(C(=O)CCC)n2c(C)nnc2S1,10.5,9.6
CCCCc1ccc(S(=O)(=O)Nc2ccccc2C(=O)NCc2ccc3c(c2)OCO3)cc1,-1.9,-3.7
Oc1ccc2[nH]cc(CCNC(c3ccccc3)(c3ccccc3)c3ccccc3)c2c1,15.9,13.2
CC(C)N(CC(=O)N(CCc1c[nH]c2ccccc12)Cc1ccc(C(F)(F)F)cc1)C(=O)COCc1ccccc1,12.0,12.7
CCS(=O)(=O)C(=S=O)c1c(C)cc(C)cc1C,-7.9,-5.9
CN(C)C(=O)C1CCN(Cc2cc(F)cc3c2OC(c2ccsc2)OC3)CC1 (stereo not given),4.3,1.5
CCN(c1ccccc1)S(=O)(=O)c1ccc(OC)c(NC(=O)C2CC(=O)N(C3CC3)C2)c1 (stereo not given),1.7,8.2
CN(C)S(=O)(=O)c1ccc(C(=O)N2CCN=C2SCc2cccc(C(F)(F)F)c2)cc1,0.7,-3.7
O=C1CCC(=O)N1CN1CCN(CN2C(=O)CCC2=O)CC1,4.9,3.1
O=S(=O)(Nc1ccc(OCC(F)(F)F)nc1)c1ccc2c(c1)OCCO2,9.8,5.9
COc1ccccc1NC(=O)N(Cc1cccc(F)c1)CC1CC(c2ccc(OC)c(OC)c2)=NO1 (stereo not given),19.0,29.3
CC1C(=O)N(CN2CCCN(Cc3ccc(C#N)cc3)CC2)C(=O)N1c1ccccc1 (stereo not given),9.8,2.8
COC(=O)c1ccsc1NC(=O)CC1SC(N2CCOCC2)=NC1=O (stereo not given),-0.9,19.5
CN(C(=O)c1ccc(N2CC=CC2)cc1)c1ccc(F)c(F)c1,-1.7,-4.2
CCN(CC)C(=O)Cc1ccc(NS(=O)(=O)c2cccs2)cc1,-2.0,-1.4
Cc1noc(C)c1S(=O)(=O)NC(=O)/C=C/c1cccc(C#N)c1,1.8,0.6
O=C(Cn1cc2c(n1)CCCC2)Nc1c(F)c(F)c(F)c(F)c1F,0.2,-2.8
S=c1[nH]nc(C2C3CCCCC32)n1Cc1ccc(Cl)cc1 (stereo not given),-11.2,-19.7
NC[C@H]1O[C@H](O[C@H]2C(O[C@@H]3O[C@H](CO)[C@@H](O)[C@H]3O)[C@@H](O)[C@H](N)C[C@@H]2N)[C@H](N)[C@@H](O)[C@@H]1O (stereo not given in full),-2.5&-1.5,-10.4&-3.7
CCSC1CCCCN(c2nc(C3CC3)no2)C1 (stereo not given),1.9,1.9
COc1cc(C(=O)N2CCC3(CC2)NCCNC3=O)c2ccccc2n1,11.2,1.3
CC(C)OC(=O)N1CCC(Nc2cncc(Cl)n2)CC1,6.1,3.6
CC1CCN(C(=O)COC(=O)c2c(NC(=O)c3ccco3)sc3c2CCC3)CC1,0.9,6.1

In the list so far, these contain an NH in an aromatic ring:
Molecule,NPYLR7 ag,NPYLR7 ag max-min
Oc1ccc2[nH]cc(CCNC(c3ccccc3)(c3ccccc3)c3ccccc3)c2c1,15.9,13.2
CC(C)N(CC(=O)N(CCc1c[nH]c2ccccc12)Cc1ccc(C(F)(F)F)cc1)C(=O)COCc1ccccc1,12.0,12.7
S=c1[nH]nc(C2C3CCCCC32)n1Cc1ccc(Cl)cc1 (stereo not given),-11.2,-19.7

Remaining list, next part
Molecule,NPYLR7 ag,NPYLR7 ag max-min
CCc1ccc(C(=O)Nc2ccc(Cn3ccnc3C)cc2)o1,16.3,6.1
Cc1ccc(-n2nnnc2Sc2ccc(C#N)cn2)cc1C,0.2,-1.3
O=C(c1cc(-c2ccc(F)cc2)nc2cc(-c3ccccc3)nn12)N1CCN(Cc2ccccc2)CC1,-7.9&5.5,0.6&19.7
CC[C@@H]1C[C@H](NC(=O)c2ccccc2)C[C@H](CCc2ccccc2)O1,-1.5,-5.5
CCOc1ccc(-c2cn(-c3ccc(Br)cc3)c(=S)[nH]2)cc1,-3.5,-3.2
CCN(Cc1noc(C)n1)C(=O)C1(COC)CCC1,11.4,7.9
CCOC(=O)C1CCCN(Cc2nc3c(cnn3C)c(=O)[nH]2)C1 (stereo not given),-3.5,-5.0
CC1CN(C(=O)COc2ccc(C(=O)c3ccccc3)cc2)CC(C)O1 (stereo not given),7.4,3.9
Cc1cnccc1/C=C/c1cccc2ccccc12,-1.4,-5.0
S=c1[nH]nc(-c2cc3ccccc3[nH]2)n1-c1ccccc1,0.5,-2.1
C#CCN(CC(=O)NC(C)(C#N)C1CC1)Cc1cccc(C)n1 (stereo not given),5.8,4.1
Cc1cc(C)c(OCC(=O)Nc2ccc(NC(=O)c3ccco3)c(C)c2)c(Cl)c1,5.9,5.6
CCOc1ccccc1CNc1nc2nc(C)c(Cl)c(=O)n2[nH]1,15.7,13.7
O=c1sc2ccccc2c(N2CCN(c3ccccc3)CC2)c1[N+](=O)[O-],-2.1,-4.4
Cc1ccc(C(=O)CCC(=O)NCc2ccc(OC(F)F)cc2)cc1C,0.9,-0.4
CCn1c(C)nnc1SCCNC(=O)c1cnn2c1CCCC2,6.3,3.6
Cn1c(C(=O)NCC2CCOC2)cc(Cl)c1Cl (stereo not given),3.7,2.3
C/C(=C/C(=O)Nc1ccc(Cl)cc1)NCc1ccc(C)cc1,-4.8,-6.0
COc1cccc([C@@H]2CCCN(C(=O)c3ccc(-n4cnnc4)cc3)C2)c1,4.8,1.6
CC(=O)Nc1ccc(-c2nc3c(Cl)cccc3[nH]2)cc1,-2.2,-4.0
CCCC(C)NC(=O)NCCc1cc(OC)c(OC)cc1Br (stereo not given),0.2,0.0
Cc1ccc(CNC(=O)c2cc(N(C)C3CCCCC3)nc3ccccc23)o1,4.5,-0.3
COc1cc(OC)c(C(c2c(O)cc(C)[nH]c2=O)c2c(O)cc(C)[nH]c2=O)cc1OC,6.5,9.1
O=C(Nc1cccc2c1CCCC2)c1cccc(CN2CC[C@H](O)C2)c1,0.7,-1.2
Cc1ccc(F)c(CC(=O)N2CCOC(COc3ccc4c(c3)CCCC4)C2)c1F (stereo not given),23.9,26.5
O=C(C1=COCCO1)N1CCN(c2nc3c(F)cc(F)cc3s2)CC1,3.3,3.1
NC(=S)NCCCC(N)C(=O)O (stereo not given),4.3,-33.0
O=C(O)CN1C(=O)C(=C2C(=O)N(CC(=O)O)c3ccccc32)SC1=S,0.9,-0.2
CSC1=NCCN1C(=O)c1ccc(Cl)cc1,-1.2,-2.3
CN(CC1CCCCO1)C(=O)CCNS(C)(=O)=O (stereo not given),9.9,7.6
Nc1cc(-c2cccc(Cl)c2)nn1-c1ccc(C(=O)N2CCC(O)(c3ccccc3)CC2)cc1,1.8,-4.2
N#CC(=Cc1ccco1)C(=O)O,6.9,7.9
Cc1ccc(C(=O)Nc2ccc(-c3noc(-c4cccc(Cl)c4)n3)cc2)cc1[N+](=O)[O-],-2.8,-5.6
COc1ccccc1-c1n[nH]c(=O)n1CCC(=O)O,-0.5,-4.0
COCCN(Cc1cccc(O)c1)Cc1ccccc1F,3.6,0.3
NC(c1ccc(F)cc1)c1cccc(C(F)(F)F)c1 (stereo not given),21.2,12.6
CCN(C(=O)c1ccccc1NCC(=O)O)C1CCOC(C)(C)C1 (stereo not given),7.1,-5.4
CC1(C)CN=C(SCC(=O)NC(c2ccccc2)c2cccs2)NC1 (stereo not given),-1.1,-1.4
O=C(CSc1nc2[nH]ncc2c(=O)n1-c1ccccc1)Nc1ccc2c(c1)OCCO2,3.4,8.6
CCCC(=O)N1CCC1(C)C(=O)Nc1cccc(F)c1 (stereo not given),-2.3,-3.2
CCOC(=O)CNC(c1ccccc1)c1cc(Br)ccc1NC(C)=O (stereo not given),-2.9,-5.5
CCCCN(CC(=O)Nc1cc(C(C)(C)C)nn1-c1ccc(Cl)c(Cl)c1)C(=O)C1CC1c1ccccc1 (stereo not given),21.5,25.3
CCc1nc2ccc(C(=O)Nc3ccc4c(c3)OCC(=O)N4)cn2c1N(C)C(=O)C1CCCCC1,-4.5,-7.9
Cc1ccc(CN(CCc2ccccc2)C(=O)CN(CCN2CCCC2)C(=O)Nc2cccc(Cl)c2)o1,0.9,10.5
C(=NCC12CC3CC(CC(C3)C1)C2)c1ccc2c(c1)OCCO2,-5.5&8.0,-3.3&2.7
CC(NC(=O)c1cc(N)ccc1N(C)C)c1ccccc1 (stereo not given),36.5,37.6
COc1ccc(-c2nc3ccc(C)cn3c2NC(C)(C)C)cc1OC,-4.6,1.7
CCC(=O)N(C=C1Sc2ccccc2C1=O)c1ccccc1,6.7,0.5
O=C(NC1CCCC1)c1cc(-c2cccs2)on1,-1.0,0.3
O=C(CSc1nnc(Cc2cccs2)n1C1CCCCC1)c1cccs1,-1.1,0.5
COc1cn(CC(=O)NC(C)C)c(CN2CCCCC2)cc1=O,-3.5,-3.9
COc1cc(OC)cc(C(=O)N2CCc3ccccc3C2c2ccc(C)cc2)c1 (stereo not given),16.4,8.3
CCc1nc(NC(=O)CCc2ccc(F)c(F)c2)sc1C,-1.1,-1.9
COC(=O)Cn1c(=NC(=O)CCc2ccccc2)sc2cc(F)ccc21,-0.8,-4.1
COc1cccc(Cc2nc3c(c(=O)[nH]2)CN(C(=O)Nc2cccc(OC)c2)CC3)c1,8.0,9.6
Cc1oc(-c2cccs2)nc1C(=O)N(C)Cc1ccccc1O,3.0,1.5

(continued)
Molecule,NPYLR7 ag,NPYLR7 ag max-min
CC1=C(C(=O)OC(C)C)C(c2ccccc2)NC(=S)N1C (stereo not given),-0.6,-3.3
COc1ccc(C2=NOC(CNCc3cccc(F)c3)C2)cc1 (stereo not given),-4.2,-2.4
Cc1cccc(N2C(=O)CSC2c2ccccn2)c1 (stereo not given),-4.8,-9.7
O=C(CCc1nnc(CCc2ccccc2)o1)N1C[C@H]2CC[C@H]1C2,6.5,3.6
COC(=O)C1=C(C)N(C2CCS(=O)(=O)C2)C(=O)NC1c1ccc(F)cc1 (stereo not given),7.4,12.1
Cc1cc(C)cc(C(=O)NCCn2cc(SC(=N)N)c3ccccc32)c1,-5.8,-11.8

Among those listed so far, these contain a Cl atom.
Molecule,NPYLR7 ag,NPYLR7 ag max-min
Cn1ccnc1Sc1ccc(NC(=O)C2CC(c3ccc(Cl)s3)=NO2)cc1 (stereo not given),2.1,13.5
CCCCN(C(=O)c1csc(-c2ccc(Cl)s2)n1)C1CCS(=O)(=O)C1 (stereo not given),-2.1,4.1
S=c1[nH]nc(C2C3CCCCC32)n1Cc1ccc(Cl)cc1 (stereo not given),-11.2,-19.7
CC(C)OC(=O)N1CCC(Nc2cncc(Cl)n2)CC1,6.1,3.6
Cc1cc(C)c(OCC(=O)Nc2ccc(NC(=O)c3ccco3)c(C)c2)c(Cl)c1,5.9,5.6
CCOc1ccccc1CNc1nc2nc(C)c(Cl)c(=O)n2[nH]1,15.7,13.7
Cn1c(C(=O)NCC2CCOC2)cc(Cl)c1Cl (stereo not given),3.7,2.3
C/C(=C/C(=O)Nc1ccc(Cl)cc1)NCc1ccc(C)cc1,-4.8,-6.0
CC(=O)Nc1ccc(-c2nc3c(Cl)cccc3[nH]2)cc1,-2.2,-4.0
CSC1=NCCN1C(=O)c1ccc(Cl)cc1,-1.2,-2.3
Nc1cc(-c2cccc(Cl)c2)nn1-c1ccc(C(=O)N2CCC(O)(c3ccccc3)CC2)cc1,1.8,-4.2
Cc1ccc(C(=O)Nc2ccc(-c3noc(-c4cccc(Cl)c4)n3)cc2)cc1[N+](=O)[O-],-2.8,-5.6
CCCCN(CC(=O)Nc1cc(C(C)(C)C)nn1-c1ccc(Cl)c(Cl)c1)C(=O)C1CC1c1ccccc1 (stereo not given),21.5,25.3
Cc1ccc(CN(CCc2ccccc2)C(=O)CN(CCN2CCCC2)C(=O)Nc2cccc(Cl)c2)o1,0.9,10.5

Bioassay records: PubChem, Fisher Drug Discovery Resource Center
